Assay outcomes (PubChem)
AmpC inh no det: AmpC beta-lactamase inhibition, detergent-free assay | Potency, µM (highest dose often 28.7 µM), for inactives: at the highest dose activity change, negative = inhibition | 71,000 compounds, 1.8% hits | P00811 | AmpC nitrocefin hydrolysis, absorbance 480 nm, no detergent; potencies from a single point are estimates; active = falling curve, for most hits resting on a single point; inconclusive = weak or doubtful change; inactive = flat or rising curve; also: % of control where 0% means no effect; about half of the hits show no inhibition at the top dose; a quarter of the inactives give rising signals
Target sequence (P00811 whole entry, looked up): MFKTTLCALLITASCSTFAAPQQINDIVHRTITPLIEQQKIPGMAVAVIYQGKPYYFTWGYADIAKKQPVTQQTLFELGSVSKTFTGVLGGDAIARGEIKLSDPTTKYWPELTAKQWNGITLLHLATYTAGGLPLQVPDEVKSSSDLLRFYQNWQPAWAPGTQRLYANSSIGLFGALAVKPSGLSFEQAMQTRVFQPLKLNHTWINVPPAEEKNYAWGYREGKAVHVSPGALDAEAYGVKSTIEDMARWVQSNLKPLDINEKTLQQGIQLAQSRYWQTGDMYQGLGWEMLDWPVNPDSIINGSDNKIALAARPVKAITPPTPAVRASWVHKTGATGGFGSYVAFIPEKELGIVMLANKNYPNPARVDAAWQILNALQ
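Enzyme, pH 7.0 phosphate. Compound titrations were pre-incubated with AmpC for 15 min at room temperature before nitrocefin (stock 800 uM) addition; product formation was recorded at 480 nm every 20 s for 4 min.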
Starred values were filed as active, the others as inactive; ? = inconclusive; [ ] = dose if it differs, or a comment. Potency is read from the fitted curve at half-maximal effect.

SMILES	AmpC inh no det
CCCn1c(C(C)NC(C)=O)nc2ccccc21 (centres undefined)	13%
COc1ccc(S(=O)(=O)N2CCC(C(=O)N3CCOCC3)CC2)cc1	11%
CSc1ccccc1C(=O)N1CCOCC1	12%
CC1SC2(CN3CCC2CC3)NC1=O (centres undefined)	-6%
CC(Sc1ccccc1)C(=O)Nc1ccc(S(=O)(=O)N2CCOCC2)cc1 (centres undefined)	6%
Cc1c(NC(=O)CSc2ccccc2C(=O)Nc2cccnc2)c(=O)n(-c2ccccc2)n1C	14%
Cc1nc2cnc(N3CCOCC3)nc2n(C[C@H]2CCCO2)c1=O	8%
Cc1ccn2cc(-c3ccc(S(=O)(=O)N4CCOCC4)cc3)nc2c1	-7%
CN1CCN(C(c2cccc(C(F)(F)F)c2)c2nnnn2Cc2ccccc2)CC1 (centres undefined)	39%
CCCCCCOC(=O)c1ccccc1N	4%
CCOC(=O)C1=C(C)NC(C)=C(C(=O)OCC)C1c1cc2ccc(C)cc2[nH]c1=O	100%
Cc1cccc(NC(=O)C(NS(=O)(=O)c2ccc3c(c2)CCC(=O)N3)c2ccccc2)n1 (centres undefined)	-14%
COc1cccc(C2C(C#N)=C(N)OC(C(C)(C)C)=C2C#N)c1 (centres undefined)	-10%
CCCC(C)c1nnc(NC(=O)C2CCCO2)s1 (centres undefined)	-4%
Cc1ccc(S(=O)(=O)c2c(N)n(C)c3nc4ccccc4nc23)cc1	1%
Cc1cccc(N2CCN(C(=O)CCCn3c(=S)[nH]c4cc5c(cc4c3=O)OCO5)CC2)c1C	3%
CS(=O)(=O)c1nc(-c2ccccc2)cc(C(F)(F)F)n1	6%
COc1ccc(C2CC(=O)N3C(=C2C#N)SCC3(O)c2ccccc2)cc1 (centres undefined)	-17%
CCOC(=O)c1ccc(CNC(=O)c2cc(C(C)(C)C)oc2C)o1	33%
COCC(=O)Nc1nnc(COc2ccccc2)s1	-2%
O=C(CN1C2=NCCN2c2ccccc21)c1ccco1	-21%
CCN(CC)c1ccc(NC(=O)Nc2ccc(C(C)=O)cc2)cc1	-7%
COc1ccc(C2C3=C(Nc4ncnn42)c2ccccc2CCC3)cc1 (centres undefined)	54%
CC1CN(S(=O)(=O)c2ccc(C(=O)Nc3sc4c(c3C(N)=O)CCN(C)C4)cc2)CC(C)O1 (centres undefined)	69%
CCN1CCCC1CN(Cc1cc2cc(OC)ccc2[nH]c1=O)C(=O)NCc1ccccc1 (centres undefined)	22%

Quoted from the listing.
For AmpC inh no det, `Cc1nc2cnc(N3CCOCC3)nc2n(C[C@H]2CCCO2)c1=O` reads 8%
For AmpC inh no det, `CS(=O)(=O)c1nc(-c2ccccc2)cc(C(F)(F)F)n1` reads 6%

(listing goes on)
SMILES	AmpC inh no det
Cc1nc2cnc(N(C)C)nc2n(Cc2ccc(F)cc2)c1=O	27%
CSCC[C@H](NC(=O)OC(C)(C)C)c1nnc(SCc2ccccc2)o1	23%
CN(Cc1ccccc1)c1nc2c(c(=O)[nH]c(=O)n2C)n1CCCSc1ncccn1	40%
O=C(c1cccs1)c1coc2ccc(O)c(CN3CCOCC3)c12	18%
O=C(O)c1cccc(S(=O)(=O)NCCO)c1	-5%[5.75 µM]
CCOC(=O)c1c(C)c(C(=O)N2CCC3(CC2)OCCO3)c(C)n1CC	34%
O=C1c2ccccc2C(O)(O)[C@@]1(O)[C@]1(O)C(=O)c2ccccc2C1(O)O	-1%[5.75 µM]
CC(=C1C(=O)c2ccccc2C1=O)N1CCc2ccccc2C1	5%
O=C(Cc1cccs1)NCc1ccncc1	-4%
COc1cccc(OC)c1OCCCOc1c(OC)cccc1OC	28%
CCCCCCCC/C=C\CCCCCCCC(=O)N(CCO)CCO	135%
COc1ccc2[nH]c3nc(SCc4nnc(-c5ccccc5)o4)nnc3c2c1	29%
NC(=O)CSc1nnc(-c2ccc(S(=O)(=O)N3CCCC3)cc2)n1Cc1ccco1	39%
Cc1cc(S(=O)(=O)N2CCN(Cc3ccc4c(c3)OCO4)CC2)cc(C)c1N1CCCC1=O	39%
CCOC(=O)N1CCN(C(=O)c2nn(-c3cc(OC)cc(OC)c3)c(=O)c3ccccc23)CC1	89%
Cc1cc(C)c(NC(=O)CSc2nnc(-c3ccco3)n2N)c(C)c1	6%
O=C(c1ccco1)N1CCN(S(=O)(=O)c2ccc(S(=O)(=O)NC3CC3)cc2)CC1	15%
O=C(N1CCN(c2ccccc2)CC1)C(F)(F)C(F)(F)F	15%
Cc1cc(C(=O)CSc2nn(-c3ccccc3)c(=S)s2)c(C)n1Cc1ccco1	13µM*
C[C@@H](NC(=O)/C(C#N)=C/c1ccc(O)c(O)c1)c1ccccc1	-20%
CCn1c(/C(C#N)=C(\O)CCc2ccccc2)nc2ccccc21	4%
COc1ccc(C2=CC(c3c(C)nn(-c4ccccc4)c3Cl)n3nnnc3N2)cc1OC (centres undefined)	117%
N#CC1=C(SCc2ccccc2Cl)NC(=O)C(C(N)=O)C1 (centres undefined)	7%
CCCCn1c(SCC2CCCCO2)nc2cc(S(N)(=O)=O)ccc21 (centres undefined)	25%
CCn1c(N2CCN(CC(=O)c3c(C)n(C)c4ccccc34)CC2)nc2c1c(=O)[nH]c(=O)n2C	142%
The listing continues.
SMILES	AmpC inh no det
Cc1c(NC(=O)CSc2ccc3c(c2)OCCO3)c(=O)n(-c2ccccc2)n1C	-2%
O=C1C2C3C=CC(C2C(=O)N1CN1CCOCC1)C1C2C(=O)N(CN4CCOCC4)C(=O)C2C31 (centres undefined)	-12%[5.75 µM]
Cc1cc(C)c(C#N)c(SCC(=O)OC2CCCCC2)n1	0%
Cc1ccc(C(=O)c2ccccc2C(=O)O)c(O)c1	-13%
Cc1cc(-c2ccc(N)c(C)c2)ccc1N	-13%
CCCCCn1c(N2CCC(C(N)=O)CC2)nc2c1c(=O)[nH]c(=O)n2C	-2%
COC(=O)[C@@]1(Cc2ccc(F)cc2)[C@H]2c3cc(C(=O)N4CCCC4)n(CCc4ccccn4)c3C[C@H]2CN1C(=O)c1ccccc1	165%
COc1cc(C2C(C(=O)c3cccs3)=C(O)C(=O)N2Cc2ccco2)cc(OC)c1OC (centres undefined)	-2%
CCc1c(C)nc2ncnn2c1N1CCC(C(=O)Nc2ccccc2)CC1	20%
C=CCN=C(NC#N)SCc1ccccc1Cl	1%
Cn1c(Cn2c(=O)sc3ccccc32)nnc1SCC(N)=O	?
C=CCN(c1ccc(C(N)=O)cc1)S(C)(=O)=O	4%
C1=C(c2ccccc2)Nc2nnnn2C1	4%
CN(C)CCCN1C(=O)C(=O)/C(=C(/O)c2ccc(OCc3ccccc3)cc2)C1c1cccnc1 (centres undefined)	-8%
Cc1nc(NC(=O)CSc2ccccc2N)sc1C	-4%
CCOc1ccc(Nc2cc(C)nc(-n3nc(C)cc3C)n2)cc1	86%
O=C(NCc1ccc2c(c1)OCO2)c1ccc(COc2cccc(Cl)c2)o1	-13%
COc1ccc(-c2nc(-c3ccc(Br)cc3)no2)c(OC)c1	-4%
CCCC(=O)N1CCN(c2ccc(C(=O)c3ccc(OC)c(Br)c3)cc2F)CC1	1%
COc1ccccc1CNC(=O)c1oc2ccc(S(=O)(=O)N3CCCC3)cc2c1C	48%
CN(C)C(=O)c1ccc(-c2nc(Nc3ccncc3)c3ccccc3n2)cc1	24%
COc1ccccc1-c1nc(C#N)c(N2CCC(Cc3ccccc3)CC2)o1	37%
COc1ccccc1CNC(=O)C1CCC(CNc2c(N3CCOCC3)c(=O)c2=O)CC1 (centres undefined)	28%
CCn1c(SCC(=O)Nc2sc(C)c(C)c2C#N)nnc1C(C)C	44%
Cc1ccccc1NC(=O)NCCCN1CCN(C2CCCCC2)CC1	-19%
Next section:
SMILES	AmpC inh no det
CCOC(=O)CCc1nn(C)c(=O)c2ccccc12	2%
CCCNS(=O)(=O)c1ccc(NC(=O)c2ccccn2)cc1	3%
CCCOC(=O)c1ccc(Oc2cn[nH]c2-c2ccc(OCC)cc2O)cc1	?
CCN(CC)C(=O)CSc1nnc(-c2cccnc2)n1CCc1ccccc1	18%
COC(=O)CSc1nnnn1-c1ccccc1	-1%
CCCSC1=C(C#N)C(c2ccc(Cl)cc2Cl)CC(=O)N1 (centres undefined)	-22%
O=C(OCc1c(Cl)cccc1Cl)c1cnccn1	6%
O=C(NC(=O)c1ccccc1)OCC(F)(F)F	3%
COc1ccccc1Cc1nc(-c2ccc(Br)o2)no1	4µM*[single pt active]
COC(=O)CC1=C(C(=O)OC)C(c2cccs2)C(C#N)=C(N)O1 (centres undefined)	1%
O=C(c1cc2nc(C3CC3)cc(C(F)F)n2n1)N1CCOCC1	16%
CCOC(=O)c1c(C)nc(-c2ccccc2)nc1NC(=O)C(C)C	19%
COc1ccc(-c2noc(CCC(=O)NCc3cccnc3)n2)cc1OC	6%
C=CC(=O)CC	3%
CCC1CCCCN1S(=O)(=O)c1ccc(S(=O)(=O)N2CCN(S(=O)(=O)CC)CC2)cc1 (centres undefined)	74%
O=C1C2CCCN2C(c2cccs2)N1c1ccc(Cl)cc1 (centres undefined)	12%
CCCn1c(CN(C)Cc2ccccc2)nc2c1c(=O)n(C)c(=O)n2C	102%
[O-]/[N+](=N\O)c1ccccc1	-7%
O=P(O)(O)c1ccccc1 (tested in a mixture with another compound)	-3%[5.75 µM]
O=C(NCCc1ccccn1)c1n[nH]c(=O)c2ccccc12	-1%
COc1c(Cl)cc(Cl)cc1/C=N/n1cnnc1	14%
CCOC(=O)c1ccc2[nH]c3c(c2c1)CCCCC3=O	22%
CCn1c(SCC(=O)c2cc(C)n(-c3ccc(C(=O)OC)cc3)c2C)nnc1-c1cccnc1	135%
CCOc1ccc(Br)cc1S(=O)(=O)N1CC(C)OC(C)C1 (centres undefined)	47%
COC(=O)c1ccccc1NC(=O)Cn1cnc2c1c(=O)n(C)c(=O)n2C	10%
Additional compounds follow.
SMILES	AmpC inh no det
CCOc1ccccc1NC(=O)Cn1nnc(C(=O)NCc2ccco2)c1N	-22%
Cn1cnnc1SCC(=O)c1cc2ccccc2oc1=O	-13%
COc1cc(C(c2nnnn2C2CCCC2)N2CCc3ccccc3C2)ccc1O (centres undefined)	40%
O=C(Nc1cccc(-c2nnn(CC(=O)N3CCc4ccccc4C3)n2)c1)C1CCC1	-4%
O=C(OC(C(=O)NC1CCCC1)c1ccc(F)cc1)c1ccno1 (centres undefined)	5%
O=C(NCCN1CCc2ccccc2C1)C1CCN(S(=O)(=O)N2CCC3(CC2)OCCO3)CC1	48%
COc1cccc(NC(=O)c2ncn[nH]2)c1	?
COC(=O)CC1NC2CCCCC2NC1=O (centres undefined)	4%
Cc1ccc(NC(=O)c2ocnc2C)cc1Cl	4%
COc1ccccc1NC(=O)CSc1nc2ncccc2[nH]1	-13%
Cc1csc(NC(=O)CSc2nc3sc(C)c(C)c3c(=O)[nH]2)n1	-4%
O=C(c1ccc(CS(=O)(=O)c2ccc(Br)cc2)o1)N1CCOCC1	17%
Clc1cccc(Cl)c1C(Nc1nncs1)Nc1nncs1	14%[5.75 µM]
CNC(=O)c1c(NC(=O)c2nc3ccccc3s2)sc2c1CCC2	54%
O=C(c1cc2ccccc2oc1=O)N1CCSC1c1ccco1 (centres undefined)	-18%
O=C1NC2(CCCc3ccccc32)C(=O)N1Cc1nnc(-c2ccccc2Br)o1 (centres undefined)	2%
COCCCn1c(Cc2ccccc2)nnc1SCC(=O)N1CCCCC1	11%
CC1(C)Oc2ccc(C(=O)N3CCOCC3)cc2N(CC(=O)Nc2ccccc2)C1=O	22%
CC1=C(C(=O)OCc2ccccc2)C(c2ccc(Cl)cc2)NC(=O)N1CCCCCC(=O)O (centres undefined)	41%
CC(C(=O)Nc1ncc2c(n1)CC(C)(C)CC2=O)N1C(=O)c2ccccc2C1=O (centres undefined)	10%
CC(=O)c1cccc(NC(=O)c2nccnc2C(=O)O)c1	-2%
CC(C)CCn1c(NCCN(C)C)nc2c1c(=O)[nH]c(=O)n2C	-3%
COc1ccccc1CNC(=O)c1cc2sccc2n1C	16%
COC(=O)COc1ccc(S(=O)(=O)N2CCOCC2)cc1C	5%

As a working copy, 24 of the compounds above:
SMILES	AmpC inh no det
CCOc1ccccc1NC(=O)Cn1nnc(C(=O)NCc2ccco2)c1N	-22%
Cn1cnnc1SCC(=O)c1cc2ccccc2oc1=O	-13%
COc1cc(C(c2nnnn2C2CCCC2)N2CCc3ccccc3C2)ccc1O (centres undefined)	40%
O=C(Nc1cccc(-c2nnn(CC(=O)N3CCc4ccccc4C3)n2)c1)C1CCC1	-4%
O=C(OC(C(=O)NC1CCCC1)c1ccc(F)cc1)c1ccno1 (centres undefined)	5%
O=C(NCCN1CCc2ccccc2C1)C1CCN(S(=O)(=O)N2CCC3(CC2)OCCO3)CC1	48%
COc1cccc(NC(=O)c2ncn[nH]2)c1	?
COC(=O)CC1NC2CCCCC2NC1=O (centres undefined)	4%
Cc1ccc(NC(=O)c2ocnc2C)cc1Cl	4%
COc1ccccc1NC(=O)CSc1nc2ncccc2[nH]1	-13%
Cc1csc(NC(=O)CSc2nc3sc(C)c(C)c3c(=O)[nH]2)n1	-4%
O=C(c1ccc(CS(=O)(=O)c2ccc(Br)cc2)o1)N1CCOCC1	17%
Clc1cccc(Cl)c1C(Nc1nncs1)Nc1nncs1	14%[5.75 µM]
CNC(=O)c1c(NC(=O)c2nc3ccccc3s2)sc2c1CCC2	54%
O=C(c1cc2ccccc2oc1=O)N1CCSC1c1ccco1 (centres undefined)	-18%
O=C1NC2(CCCc3ccccc32)C(=O)N1Cc1nnc(-c2ccccc2Br)o1 (centres undefined)	2%
COCCCn1c(Cc2ccccc2)nnc1SCC(=O)N1CCCCC1	11%
CC1(C)Oc2ccc(C(=O)N3CCOCC3)cc2N(CC(=O)Nc2ccccc2)C1=O	22%
CC1=C(C(=O)OCc2ccccc2)C(c2ccc(Cl)cc2)NC(=O)N1CCCCCC(=O)O (centres undefined)	41%
CC(C(=O)Nc1ncc2c(n1)CC(C)(C)CC2=O)N1C(=O)c2ccccc2C1=O (centres undefined)	10%
CC(=O)c1cccc(NC(=O)c2nccnc2C(=O)O)c1	-2%
CC(C)CCn1c(NCCN(C)C)nc2c1c(=O)[nH]c(=O)n2C	-3%
COc1ccccc1CNC(=O)c1cc2sccc2n1C	16%
COC(=O)COc1ccc(S(=O)(=O)N2CCOCC2)cc1C	5%

Not all compounds are listed; the hit share may differ from the screen's.
